# Source: PubChem BioAssay (National Center for Advancing Translational Sciences (NCATS))
# TRPML1 agonist = human mucolipin-1 channel agonism | AID 624414 | activation, % (test concentration not listed) | TRPML1-expressing cells, Ca2+ dye fluorescence, FDSS; host cell line not named in the record; reference of the full effect not given here | 410,000 tested, 0.12% active; in the data active = activation above about 50%; inconclusive = about 30% to 50%; inactive = below about 30%; further: 0% is about no effect; the text of the record puts the active cut at 80%
# Target sequence (Q9GZU1 whole entry, looked up): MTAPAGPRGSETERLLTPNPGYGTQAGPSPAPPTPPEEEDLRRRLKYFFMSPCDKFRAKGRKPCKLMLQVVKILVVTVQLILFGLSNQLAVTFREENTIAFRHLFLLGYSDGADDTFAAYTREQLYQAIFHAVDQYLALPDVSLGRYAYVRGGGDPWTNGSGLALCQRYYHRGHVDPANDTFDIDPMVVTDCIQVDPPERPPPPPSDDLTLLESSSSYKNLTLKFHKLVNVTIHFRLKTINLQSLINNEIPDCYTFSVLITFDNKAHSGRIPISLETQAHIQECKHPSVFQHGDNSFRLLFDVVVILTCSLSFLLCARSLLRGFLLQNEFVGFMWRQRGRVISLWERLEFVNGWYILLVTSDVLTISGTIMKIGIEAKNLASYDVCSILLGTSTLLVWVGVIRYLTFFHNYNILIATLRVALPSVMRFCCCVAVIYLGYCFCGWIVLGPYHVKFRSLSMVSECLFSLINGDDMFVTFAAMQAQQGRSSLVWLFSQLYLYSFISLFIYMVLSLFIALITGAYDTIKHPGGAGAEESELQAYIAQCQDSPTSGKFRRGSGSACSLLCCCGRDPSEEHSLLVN
#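 Tet-induced TRPML1-DL cells, 1,500 per well, cultured overnight, were loaded with a no-wash Ca2+ dye for 45–90 min. Calcium fluorescence was recorded on the FDSS for 110 s after compound addition, before the EC80 agonist (4 uM 54-4) was added.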
# gsp ag = agonists of gsp mutant (McCune-Albright syndrome); gsp mutant cells, cAMP HTRF, 30 min; control for the full effect not named in the record; Potency, µM (series often up to 76.9 µM), for the others: at the highest dose activation (cAMP increase), actives largely listed as activators; 340,000 tested, 0.13% active; AID 624287; active = well fitted activation curve with a large enough effect; inconclusive = small, poorly fitted or top-dose-only effect, or another doubt; inactive = no such curve, though single readings can be large or run the other way; cell line not stated here;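 further: phosphodiesterase inhibitor Ro 20-1724 added with compounds to block cAMP breakdown; potency means the concentration at half of the fitted maximal effect; nearly all actives have a fitted effect of over 60% in size; about a fifth of the inactives were tested at one dose only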
#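 Cells stably selected in G418 were plated at 2000/well, grown 16-24 hr, then given compounds in DMSO with the PDE inhibitor […] (300 uM solution added) for 30 min at 37C; cAMP was read by HTRF.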
# Menin MLL FP FL = menin-MLL binding inhibition, fluorescein peptide; 290,000 tested, under 10 active; AID 1766; FP activity change, % at 61.4 µM; Fluorescence polarization, fluorescein-MLL peptide displacement from menin; inconclusive = falling polarisation curve, or a change in total fluorescence; inactive = total fluorescence flat and polarisation flat or rising; no compound was filed as active; the % refers to the polarisation; negative = inhibition;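 further: % of control where 0% means no effect; inhibitors lower the polarisation; unlabelled MLL peptide was the positive control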
# TRPML1 inh = blocks the human TRPML1 channel; TRPML1-inducible cells, Ca2+ dye fluorescence, FDSS; active compounds read low; inhibition of EC80 agonist-evoked calcium signal; Q9GZU1; 390,000 tested, 0.02% active; activity change, negative = inhibition, % (test concentration not listed); AID 624415; in the data active means activity change below about -50%; inconclusive means about -30% to -50%; inactive means above about -30%;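 further: stimulus is agonist 54-4 at its EC80 concentration; on the % scale 0 is the no-effect control and ±100 the full control effect; compound concentration not given in the record; the text of the record puts the active cut at -80%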
#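 Tet-induced TRPML1-DL cells loaded with Ca8 no-wash calcium dye were read kinetically on FDSS. Compound addition was followed by EC80 agonist 54-4 (4 uM final); inhibition was read over 110 s.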
# ClpP mod = qHTS Assay for Activators of ClpP; purified B. subtilis ClpP, FRET peptide cleavage, 20 min; Potency, µM (highest dose often 57.5 µM), for inactives: at the highest dose activity change, negative = active; 340,000 tested, 1.9% active; active = well fitted falling curve with a large enough effect; inconclusive = small, poorly fitted or top-dose-only effect; inactive = no such curve, though single readings can be large or run the other way; further: potency means the concentration at half of the fitted maximal effect; the source files actives as falling curves though it sought activators and does not explain the sign; nearly all actives have a fitted effect of over 65% in size; many hits overshoot -100%
# Target sequence (P80244 whole entry, looked up): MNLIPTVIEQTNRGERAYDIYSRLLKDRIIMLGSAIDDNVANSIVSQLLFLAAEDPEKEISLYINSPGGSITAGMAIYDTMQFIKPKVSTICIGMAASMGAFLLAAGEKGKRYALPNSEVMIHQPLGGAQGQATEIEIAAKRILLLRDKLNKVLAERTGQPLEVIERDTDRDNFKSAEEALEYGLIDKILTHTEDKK
#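 ClpP 10 microg/mL final, pH 8 Tris/KCl buffer with BSA, glycerol, Tween-20; compound pinned in; FRET-FV substrate; RT 20 min; Ex320/Em430; ΔFRET vs ADEP 5.8 microM, DMSO, no enzyme.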
# gsp antag = antagonizes gsp, the McCune-Albright syndrome mutation; gsp-mutant cells, cAMP HTRF, 30 min; control for the full effect not named in the record; Potency, µM (series often up to 76.9 µM), inactives show at the top dose activity change, negative = inhibition, hits mostly inhibitors; 340,000 tested, 0.4% active; AID 624288; active = falling curve of any shape with a large fitted effect; inconclusive = falling curve, mostly with a smaller effect; inactive = flat or rising curve; cell line not stated here;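 further: intracellular cAMP measured with PDE inhibitor Ro 20-1724 present during compound exposure; potency means the concentration at half of the fitted maximal effect; on the % scale 0 is the no-effect control and ±100 the full control effect; nearly all actives have a fitted effect of over 65% in size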
#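 Measurement of cellular cAMP by homogeneous time-resolved fluorescence following a 30 min compound exposure at 37C. The PDE inhibitor […] was present throughout; the assay buffer was DPBS with 0.05% BSA and 0.005% Tween 20.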
# Active calls of the source: *; ? = inconclusive; . = no result given; & = joins results of further samples; [ ] = dose if it differs, or a comment.
1. COCCn1ccc2c(OCC(=O)Nc3cccc(C(F)(F)F)c3)cccc2c1=O
2. CCCCCC(=O)N1C[C@H](n2cc(C3CC3)nn2)[C@@H](O)C[C@@H]1c1ccccc1
3. CCCn1nnnc1NCc1ccccc1C
4. NC(=O)Nc1n[nH]c(-c2ccccc2)n1
5. O=C(Cn1nnc(-c2ccccc2)n1)N/N=C/c1cc([N+](=O)[O-])c(Cl)cc1Cl
assay / compound	1	2	3	4	5
TRPML1 agonist	-0.6	-0.3	-0.6	1.7	-0.2
gsp ag	.	9%	4%[15.4 µM]	-2%	-6%
Menin MLL FP FL	.	.	-5.2	1.0	-1.3
TRPML1 inh	-26	14	1	-16	7
ClpP mod	-20%	-0.8%	0.6%	-0.6%	1.8%
gsp antag	.	.	4%	3%	4%

6. Cc1onc(-c2c(F)cccc2Cl)c1C(=O)NCCN1CCNC1=O
7. CCOC(=O)CN1C(=O)C(Sc2n[nH]c(-c3cccc(C)c3)n2)CCc2ccccc21 (stereo unspecified)
8. COc1ccc(S(=O)(=O)N2CCCCC2)cc1NC(=O)Cc1c[nH]c2ccccc12
9. CN(CC(=O)Nc1c(Cl)cccc1Cl)C(=O)c1ccccc1-c1nc2ccccc2s1
10. Brc1ccc2c(c1)OCCOCCOCCOCCOCCO2
assay / compound	6	7	8	9	10
TRPML1 agonist	0.1	5.1	0.1	0.4	0.3
gsp ag	-3%[15.4 µM]	-3%	20%[15.4 µM]	-16%	-2%
Menin MLL FP FL	-1.1	0.2	.	.	2.4
TRPML1 inh	34	23	35	24	-2
ClpP mod	.	-3.5%	9.2%	-3.1%	-0.4%
gsp antag	17%	-30%	-28%	?	5%

11. Cc1ccc(Cl)cc1NC(=O)Nc1cccs1
12. CCOC(=O)c1oc2cccc(O)c2c1C
13. CCOC(=O)c1c(NC(=S)Nc2ccccc2)sc2c1CCCCC2
14. CC(C)Cn1c(SCC(=O)Nc2cccnc2Cl)nnc1-c1ccco1
15. CCOC(=O)N1CCc2c(sc3c2c(=O)n(CCc2ccccc2)c(=O)n3CC(=O)Nc2ccccc2C)C1
assay / compound	11	12	13	14	15
TRPML1 agonist	0.6	0.3	-0.5	-0.3	0.2
gsp ag	-3%[15.4 µM]	-47%	0%	-3%	.
Menin MLL FP FL	2.2	1.9	2.1	.	.
TRPML1 inh	0	-3	10	1	11
ClpP mod	.	-1.9%	-0.3%	.	-2.1%
gsp antag	?	3%	-6%	-2%	.

16. Cc1cccc2nc(CSc3ccccc3N)cn12
17. Cn1c(NC(=O)c2ccc(Cl)cc2)cc(=O)n(C)c1=O
18. Cc1ccc(CSc2sc(C(=O)c3ccccc3)c(N)c2C#N)cc1
19. COc1cc(OC)cc(C(=O)N2CCN=C2SCc2cccnc2)c1
20. O=C(NCc1ccncc1)c1cc(F)c(F)cc1Cl
assay / compound	16	17	18	19	20
TRPML1 agonist	-0.8	-0.6	1.1	0.0	0.3
gsp ag	?	?	-25%	-43%	19%
Menin MLL FP FL	.	-2.1	0.6	1.1	-0.2
TRPML1 inh	-15	-5	-25	-6	-3
ClpP mod	-1.4%	.	-5.1%	1.6%	.
gsp antag	0%	8%	13%	-15%	9%

# Three compounds drawn at random from those above, as already listed:
16. Cc1cccc2nc(CSc3ccccc3N)cn12
19. COc1cc(OC)cc(C(=O)N2CCN=C2SCc2cccnc2)c1
18. Cc1ccc(CSc2sc(C(=O)c3ccccc3)c(N)c2C#N)cc1
assay / compound	16	19	18
TRPML1 agonist	-0.8	0.0	1.1
gsp ag	?	-43%	-25%
Menin MLL FP FL	.	1.1	0.6
TRPML1 inh	-15	-6	-25
ClpP mod	-1.4%	1.6%	-5.1%
gsp antag	0%	-15%	13%

# (list continues)
21. COC(=O)CC1C(=O)NCCN1C(=S)NC(=O)c1ccccc1[N+](=O)[O-] (stereo unspecified)
22. O=C(O)c1cccc(NC(=O)c2ccc(S(=O)(=O)c3ccccc3)cc2)c1
23. CC(=O)CCC(=O)N1CCC(n2nccc2NC(=O)c2ccccc2C)CC1
24. CCCOC(=O)c1c(NC(=O)CCCn2nc([N+](=O)[O-])cc2C)sc(C(=O)OC)c1C
25. CCOC(=O)N1CCC(Nc2cccc(SC)c2)CC1
assay / compound	21	22	23	24	25
TRPML1 agonist	-0.5	0.0	0.3	-0.2	0.1
gsp ag	14%[15.4 µM]	-6%	22%	-12%[15.4 µM]	-54%[inhibitor]
Menin MLL FP FL	-0.2	-3.9	.	1.9	-0.2
TRPML1 inh	-14	11	-6	29	8
ClpP mod	-0.8%	0.8%	61%	-0.7%	0.1%
gsp antag	-7%	-9%	-13%	-3%	?

26. COc1ccc(OC)c(CN2C(=O)c3ccccc3C2C(=O)NCc2cccnc2)c1 (stereo unspecified)
27. Cc1cccc(-c2nnn3c2nc(NCCC(C)C)c2ccccc23)c1
28. COC(=O)C(O)(CC(=O)Nc1ccc(Cl)cc1Cl)C(F)(F)F (stereo unspecified)
29. COC(=O)Cn1ncc(N2C3CC(CC(C)(C)C3)C2C)c(Cl)c1=O (stereo unspecified)
30. CCOC(=O)C1=C(N)OC2=C(C(=O)CC(C)(C)C2)C1c1ccco1 (stereo unspecified)
assay / compound	26	27	28	29	30
TRPML1 agonist	-0.6	-0.5	-0.8	0.9	0.9
gsp ag	-33%[inhibitor]	.	1%	7%	4%
Menin MLL FP FL	0.1	.	-2.7	1.6	1.1
TRPML1 inh	-2	-19	14	11	7
ClpP mod	1.9%	-13%	0.6%	-2.9%	-5.1%
gsp antag	-1%	.	9%	-4%	-3%

31. COc1ccccc1N1CCN(CC(O)COc2cccc3ccccc23)CC1 (stereo unspecified)
32. COc1ccc(-c2cc(C(F)(F)F)nc(N3CCN(c4ccc(F)cc4)CC3)n2)cc1OC
33. COc1ccc(OC)c(CC(=O)N2CCc3cc(OC)c(OC)cc3C2)c1
34. COc1ccc(Br)cc1CN(C)C(=O)c1ccccc1OCc1c(C)noc1C
35. O=C(/C=C/c1ccccc1)OCN1C(=O)c2ccccc2C1=O
assay / compound	31	32	33	34	35
TRPML1 agonist	-0.5&-1.1	0.3	0.9	1.2	3.4
gsp ag	.	-9%[15.4 µM]	-1%	8%[15.4 µM]	8%
Menin MLL FP FL	2.3&2.8&2.0&-2.8	8.3	-1.5	.	2.3
TRPML1 inh	10&2	20	-12	8	27
ClpP mod	-26%&-5.5%	-2.6%	.	-1.8%	.
gsp antag	23%&-3%	7%	3%	?	-9%

36. COc1cccc(N2C(=O)CN(Cc3ccc(OC)c(OC)c3)C2=S)c1
37. CSc1nsc(SCC(=O)Nc2cccc(C(=O)O)c2)n1
38. O=[N+]([O-])c1ccc(-c2cnc[nH]2)cc1
39. NC(=O)NC(=O)CSc1nnc(-c2ccco2)n1Cc1ccccc1
40. COc1ccccc1CNC(=O)CCCn1nc(C)n2ccnc2c1=O
assay / compound	36	37	38	39	40
TRPML1 agonist	1.2	0.2	0.3	-1.0	0.2
gsp ag	-15%	-21%	-11%[15.4 µM]	12%	?
Menin MLL FP FL	-0.3	-7.1	0.8	0.7	-2.3
TRPML1 inh	12	-5	0	-3	5
ClpP mod	-1.4%	.	-15%	-0.5%	1.6%
gsp antag	0%	14%	4%	7%	16%

41. Cc1cc(C)nc(SCc2csc(-c3ccccc3)n2)n1
42. COc1cc(-c2cc(OC)c3c(C)oc(C)c3c(=O)c2)ccc1OC(=O)c1ccccc1C
43. Cc1cc(/C=C(\C#N)C(=O)N2CCOCC2)c(C)n1C1CCCC1
44. CN(C)c1cccc2c(C=C(C#N)C#N)ccc(N(C)C)c12
45. COc1cc(NC(=O)c2cc(Cl)ccc2Cl)ccc1-c1cc2ccccc2oc1=O
assay / compound	41	42	43	44	45
TRPML1 agonist	3.4	0.6	0.7	0.8	1.2
gsp ag	16%	.	20%	1%	?
Menin MLL FP FL	-3.4	.	4.2	.	2.4
TRPML1 inh	13	15	-13	3	6
ClpP mod	-8.1%	-0.4%	-1.0%	-1.9%	28µM*
gsp antag	16%	.	0%	-6%	0%

# Some of the entries above, set out differently.
entry	Structure	TRPML1 agonist	gsp ag	Menin MLL FP FL	TRPML1 inh	ClpP mod	gsp antag
43	Cc1cc(/C=C(\C#N)C(=O)N2CCOCC2)c(C)n1C1CCCC1	0.7	20%	4.2	-13	-1.0%	0%
41	Cc1cc(C)nc(SCc2csc(-c3ccccc3)n2)n1	3.4	16%	-3.4	13	-8.1%	16%
42	COc1cc(-c2cc(OC)c3c(C)oc(C)c3c(=O)c2)ccc1OC(=O)c1ccccc1C	0.6	.	.	15	-0.4%	.

# Later entries:
46. O=C(O)c1ccccc1C(=O)Nc1ccccc1
47. CCCCCNC(=O)c1c[nH]c2ccc(S(=O)(=O)N3CCC(C)CC3)cc2c1=O
48. O=C(NCc1cccnc1)c1c(O)c2cccc3c2n(c1=O)CCC3
49. Cc1ccnc(NC(=O)c2ccc(Cl)c([N+](=O)[O-])c2)c1
50. CCOc1cc(C(=O)NCCc2csc(-c3ccc(C)cc3)n2)cc(OCC)c1OCC
assay / compound	46	47	48	49	50
TRPML1 agonist	-0.8	1.4	-0.5	0.9	19
gsp ag	-43%[inhibitor]	.	-1%[15.4 µM]	-10%[15.4 µM]	.
Menin MLL FP FL	3.6	.	-3.1	-1.9	.
TRPML1 inh	3	-50*	-27	10	?
ClpP mod	1.0%	-3.5%	.	.	7.3%
gsp antag	2%	.	.	?	.

51. O=c1c2cnn(-c3ccc(Cl)cc3)c2ncn1Cc1cccc(C(F)(F)F)c1
52. COc1ccc(C(=O)Nc2ccccc2C(=O)NCCN2CCOCC2)cc1OC
53. Cc1cccc(/C=N/NC(=O)c2ccc(F)cc2)n1
54. C/C(=N\Nc1ccccn1)c1ccc(C(C)C)cc1
55. O=C(COC(=O)CCc1nc2ccccc2s1)Nc1ncc(Cl)cc1Cl
assay / compound	51	52	53	54	55
TRPML1 agonist	0.1	-0.5	2.5	2.2	-0.7
gsp ag	.	15%	-23%	-1%[15.4 µM]	3%[15.4 µM]
Menin MLL FP FL	.	2.7	2.7	0.5	4.0
TRPML1 inh	-9	-4	1	-9	3
ClpP mod	-7.5%	-0.1%	1.1%	.	-3.6%
gsp antag	.	0%	2%	-16%	8%

56. CCOC(=O)c1[nH]c2ccccc2c1N=CN(CC)CC
57. O=C(Nc1ccccc1)O[C@@H]1C[C@H]2CCC(=O)N3CC[C@@H](C1)[C@@H]23
58. Cc1ccc(-n2nnc3c(=O)n(CC(=O)c4ccccc4)cnc32)cc1
59. CCCCOc1ccc(C2(C)NC(=O)N(C)C2=O)cc1 (stereo unspecified)
assay / compound	56	57	58	59
TRPML1 agonist	0.3	-0.3	0.0	.
gsp ag	4%	.	-29%	?
Menin MLL FP FL	-1.2	-6.5	0.2	5.5
TRPML1 inh	6	.	-10	.
ClpP mod	-4.3%	2.3%	0.5%	1.2%
gsp antag	-2%	.	7%	17%
